Biofilm kill mix = mixture kills Candida albicans biofilm cells; C. albicans biofilm persisters + clotrimazole, fluorescence viability; primary screen in compound mixtures of four per well; inhibition, % at 7.6 µM; 120,000 compounds, 0.02% hits; AID 1242;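 active means inhibition above 30.3% in the primary screen of four-compound pools, then above 30% when the compound was retested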;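 further: compounds exposed to preformed 24 h biofilms for 48 h; the number belongs to the whole pool; some results filed as inactive read as strong as hits; inactives centre near 12; 0% = biofilm with clotrimazole alone and 100% = kill control; retested singly at about 60 µM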
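Incubation: 24 h biofilm formation, then 48 h compound exposure, 37 °C | Material: C. albicans biofilms | Buffer or medium: RPMI/MOPS medium, pH 7.0 | Measured by: 2-h Alamar Blue fluorescence, 535/590 nm excitation/emission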
* hit, by the source's call.

`FC(F)Oc1ccc(-n2cc(-c3ccccc3)[n+]3c2CCCCC3)cc1` gave Biofilm kill mix 7.
`N#Cc1c2c(c(-c3ccccc3Cl)[nH]c1=S)CCCC2` gave Biofilm kill mix 3.
Screening Cc1ccc(NC(=O)c2ccc(Nc3c([N+](=O)[O-])cc([N+](=O)[O-])cc3[N+](=O)[O-])cc2)cc1 returned Biofilm kill mix 24.
Screening CN(C)c1ccc(/C=N/NC(=O)c2ccccc2)cc1 returned Biofilm kill mix 7.
Screening O=C(c1ccco1)N1CCN(c2ccc([N+](=O)[O-])c(N3CCOCC3)c2)CC1 returned Biofilm kill mix 8.
Screening Cc1ccc2nc(N(CCCN(C)C)C(=O)CN3C(=O)c4ccccc4C3=O)sc2c1 returned Biofilm kill mix 18.
For O=c1[nH]cc(N(CCO)CCO)c(=O)[nH]1 the results were Biofilm kill mix 15.
For COc1cc(NC(=O)C/C(C)=N/NC(=O)C(=O)NC2CCCCC2)c(OC)cc1Cl the results were Biofilm kill mix -8.
For COc1ccc(/C=C/c2nc3ccccc3n2C)cc1 the results were Biofilm kill mix 19.
`O=[N+]([O-])/C=C/c1cc2ccccc2[nH]1` gave Biofilm kill mix 23.
Screening COc1ccc(-c2nc(SCC(=O)NC3CCCC3)c(-c3ccc(OC)cc3)[nH]2)cc1 returned Biofilm kill mix 9.
`CCC(C(=O)O)N1C(=O)C2CCCCC2C1=O` (centres undefined) gave Biofilm kill mix 19.
For O=C(Nc1nc2ccc(F)cc2s1)C1=NN(c2ccccc2)C(=O)CC1 the results were Biofilm kill mix 1.
Cc1cc(NCCCn2ccnc2)n2nc(-c3ccc(Cl)cc3)cc2n1 was read as Biofilm kill mix 13.
Screening O=C(Nc1ccc(N2CCCC2)cc1)c1cccc(-c2cc3ccccc3oc2=O)c1 returned Biofilm kill mix 22.
For Cc1nc([N+](=O)[O-])c(SCC(O)CCl)n1Cc1ccc(Cl)cc1 (centres undefined) the results were Biofilm kill mix 10.
For COc1ccccc1NC(=S)N(CCCN(C)C)Cc1cc2cc3c(cc2[nH]c1=O)OCO3 the results were Biofilm kill mix 12.
Screening Cc1cc2ccccn2c1C(C[N+](=O)[O-])c1ccc(N(C)C)cc1 (centres undefined) returned Biofilm kill mix 8.
Screening CC(=O)NC/C(C)=N\Nc1ccc([N+](=O)[O-])cc1 returned Biofilm kill mix 36.
For COc1cc(CNCCCN2CCOCC2)ccc1OCC(=O)NC(C)(C)C the results were Biofilm kill mix 19.
O=c1cc(-c2ccccc2)nc2cc(-c3ccco3)[nH]n12 was read as Biofilm kill mix 22.
`Cc1sc2ncn(CC(=O)NCC3COc4ccccc4O3)c(=O)c2c1S(=O)(=O)N1CCOCC1` (centres undefined) gave Biofilm kill mix 4.
For COc1ccccc1NS(=O)(=O)c1cc(NC(=O)CCC2CCCC2)ccc1N1CCOCC1 the results were Biofilm kill mix 20.
Screening Cc1cccc2sc(N(CCN(C)C)C(=O)/C=C/c3cccs3)nc12 returned Biofilm kill mix 7.
Screening COc1ccccc1NC(=S)NNC(=S)Nc1ccc(OC(F)F)cc1 returned Biofilm kill mix 17.
Screening O=C(Nc1ccc(F)c([N+](=O)[O-])c1)c1ccc2c(c1)OCCO2 returned Biofilm kill mix 14.
COc1cc(C)nc(N2CCCC(C(=O)Nc3ccccc3Br)C2)n1 (centres undefined) was read as Biofilm kill mix 17.
For Cc1ccc(C(=O)C2CCN(S(=O)(=O)c3c(C)noc3C)CC2)cc1 the results were Biofilm kill mix 5.
`CC(C)n1cc(C(=O)c2ccccc2O)cc(C#N)c1=O` gave Biofilm kill mix 13.
For COC(=O)[C@@H]1C[C@H]1[C@@H](NC(=O)c1ccccc1)c1ccccc1 the results were Biofilm kill mix 4.
Screening O=C(COC(=O)Cc1ccccc1[N+](=O)[O-])NCc1ccc(F)cc1 returned Biofilm kill mix 21.
CC(=O)c1ccccc1N(C(=O)c1ccco1)C(C(=O)NC1CCCC1)c1ccc(N2CCOCC2)cc1 (centres undefined) was read as Biofilm kill mix 3.
C/C(=N\OCC(=O)Nn1c(=O)[nH]c2ccccc2c1=O)c1cccs1 was read as Biofilm kill mix 5.
O=C1CSC(c2cccnc2)N1Cc1ccc(Cl)cc1Cl (centres undefined) was read as Biofilm kill mix 15.
`CCOC(=O)c1c(C)c(C)n(Cc2cccc(OC)c2OC)c1C` gave Biofilm kill mix 11.
Screening COC(=O)C1CSC(C(=O)OC)N1C(=O)CN1CCN(c2ccc(OC)cc2)CC1 (centres undefined) returned Biofilm kill mix 21.
COc1ccc(/C=N/N=C2\SC(CC(=O)O)C(=O)N2c2ccccc2)c(OC)c1 (centres undefined) was read as Biofilm kill mix 15.
CC(NC(=O)COC(=O)C1CSC2(C)CCC(=O)N12)C12CC3CC(CC(C3)C1)C2 (centres undefined) was read as Biofilm kill mix 7.
`CC(C)(C)c1ccc(OCc2cnc(Cl)s2)cc1` gave Biofilm kill mix 14.
C=CCOc1ccccc1CNc1ccc2[nH]c(=O)[nH]c2c1 was read as Biofilm kill mix 19.
Screening O=C(O)C(=O)Cc1c[nH]c2ccccc12 returned Biofilm kill mix 3.
For [O-]/C(=C(\C(=S)Nc1ccc(SC(F)F)cc1)[n+]1cccc(CO)c1)c1ccc(Cl)s1 the results were Biofilm kill mix -5.
Screening O=C(Nc1nnc(CSCc2ccc(F)cc2)s1)c1cccc([N+](=O)[O-])c1 returned Biofilm kill mix 8.
`O=C(O)/C(=C\c1ccccc1)c1ccccc1` gave Biofilm kill mix 19.
CN(CC(=O)NC1CCCc2ccccc21)C1CCCCC1 (centres undefined) was read as Biofilm kill mix 10.
CC(C)CC(NC(N)=O)C(=O)NCCc1ccc(Cl)cc1Cl (centres undefined) was read as Biofilm kill mix 8.
Screening C/C(N)=C(/C#N)C(=O)COc1ccc(Cl)cc1Cl returned Biofilm kill mix 10.
Fc1cccc(CSc2ccc(-c3ccc4c(c3)OCO4)nn2)c1 was read as Biofilm kill mix 15.
Cc1cccc(CN2CCN(CCCc3ccccc3)CC2)c1 was read as Biofilm kill mix 3.
Screening COC(=O)c1cc2occc2n1Cc1nc(-c2ccccc2C)oc1C returned Biofilm kill mix 15.
`Cc1ccc(Nc2c([N+](=O)[O-])c(=O)oc3ccccc23)cc1C` gave Biofilm kill mix 23.
Screening COc1ccc(CCNC(=O)CSc2nc(N)cc(=O)[nH]2)cc1OC returned Biofilm kill mix 20.
`CCC(=O)Nc1ccc(Cl)c(NC(=S)NC(=O)c2cc3ccccc3o2)c1` gave Biofilm kill mix 19.
COc1ccccc1NC(=O)CCSCCC(=O)Nc1ccccc1OC was read as Biofilm kill mix 7.
CC(=O)N(C(C)=O)c1c(N2CCCC2)c2ccccc2oc1=O was read as Biofilm kill mix 19.
For CCNS(=O)(=O)c1ccc(NC(=S)NCC2CCCO2)cc1 (centres undefined) the results were Biofilm kill mix 13.
Screening CCOC(=O)C1=C(CC)OC(N)=C(C#N)C1c1ccc(OC)c(C)c1OC (centres undefined) returned Biofilm kill mix 4.
`CN1CCN(S(=O)(=O)c2ccc(N3CCc4ccccc4C3)nc2)CC1` gave Biofilm kill mix 2.
`CCSc1nnc(NC(=O)COc2ccccc2[N+](=O)[O-])s1` gave Biofilm kill mix -2.
Screening CCCNC(=O)Cn1c(=O)/c(=C\c2ccc(-c3ccc([N+](=O)[O-])cc3)o2)s/c1=C\C(=O)C(C)(C)C returned Biofilm kill mix 9.
For N#Cc1ccccc1Sc1ccccc1C(=O)Nc1ccc2ccccc2c1 the results were Biofilm kill mix 12.
For COc1cc(Cl)nn(-c2ccccc2)c1=O the results were Biofilm kill mix 0.
Cc1ccc(OCCCCNC(C)(C)C)c([N+](=O)[O-])c1 was read as Biofilm kill mix 23.
CC(C)(C)Nc1nc(Oc2ccc(=O)[nH]n2)nc(N2CCOCC2)n1 was read as Biofilm kill mix -3.
`CN1C(=O)C(CC(=O)Nc2ccc(F)cc2)N(Cc2cccs2)C1=S` (centres undefined) gave Biofilm kill mix 10.
`O=C(COc1ccc(F)cc1)N1CCC(c2ccccc2)C1` (centres undefined) gave Biofilm kill mix 14.
Screening COc1cc2nc(COc3ccccc3[N+](=O)[O-])oc(=O)c2cc1OC returned Biofilm kill mix 6.
For COCCCNC(=S)N/N=C/c1ccc(O)cc1O the results were Biofilm kill mix 18.
`CS(=O)(=O)Nc1cccc(S(=O)(=O)N2CCN(C(=O)c3ccccc3)CC2)c1` gave Biofilm kill mix 17.
For CS(=O)(=O)Nc1ccccc1C(=O)Nc1ccccc1Cl the results were Biofilm kill mix 11.
`CCCCC(Sc1nc(N)c(NC(=O)c2ccc(OCC)cc2)c(=O)[nH]1)C(=O)O` (centres undefined) gave Biofilm kill mix 9.
Cc1cc(C)c2ccc(Cl)cc2n1 was read as Biofilm kill mix 14.
Screening CC(C)(C)C(=O)/C(=C/c1cccc([N+](=O)[O-])c1)n1cncn1 returned Biofilm kill mix 15.
O=C(NCc1cccnc1)c1cccn1-c1ncc(C(F)(F)F)cc1Cl was read as Biofilm kill mix 14.
`COc1ccc(CCNC(=O)CCc2ccc(S(=O)(=O)NC(C)C)cc2)cc1OC` gave Biofilm kill mix 4.
`c1cncc(CSc2nnc3ccc(-c4ccncc4)nn23)c1` gave Biofilm kill mix 8.
Screening C#CCn1c(=O)cc(C)c2ccccc21 returned Biofilm kill mix 14.
Screening Cc1ccc(NC(=O)N2CCCC2)cc1Cl returned Biofilm kill mix 12.
For Fc1ccccc1NC(=S)N(CCN1CCCCCC1)Cc1cccs1 the results were Biofilm kill mix 13.
Screening CC(=O)c1ccc(OC(=O)CCc2nc3ccccc3s2)cc1 returned Biofilm kill mix 12.

Compounds shown so far with a Cl atom, in the order listed:
`N#Cc1c2c(c(-c3ccccc3Cl)[nH]c1=S)CCCC2` gave Biofilm kill mix 3.
For COc1cc(NC(=O)C/C(C)=N/NC(=O)C(=O)NC2CCCCC2)c(OC)cc1Cl the results were Biofilm kill mix -8.
Cc1cc(NCCCn2ccnc2)n2nc(-c3ccc(Cl)cc3)cc2n1 was read as Biofilm kill mix 13.
For Cc1nc([N+](=O)[O-])c(SCC(O)CCl)n1Cc1ccc(Cl)cc1 (centres undefined) the results were Biofilm kill mix 10.
O=C1CSC(c2cccnc2)N1Cc1ccc(Cl)cc1Cl (centres undefined) was read as Biofilm kill mix 15.
`CC(C)(C)c1ccc(OCc2cnc(Cl)s2)cc1` gave Biofilm kill mix 14.
For [O-]/C(=C(\C(=S)Nc1ccc(SC(F)F)cc1)[n+]1cccc(CO)c1)c1ccc(Cl)s1 the results were Biofilm kill mix -5.
CC(C)CC(NC(N)=O)C(=O)NCCc1ccc(Cl)cc1Cl (centres undefined) was read as Biofilm kill mix 8.
Screening C/C(N)=C(/C#N)C(=O)COc1ccc(Cl)cc1Cl returned Biofilm kill mix 10.
`CCC(=O)Nc1ccc(Cl)c(NC(=S)NC(=O)c2cc3ccccc3o2)c1` gave Biofilm kill mix 19.
For COc1cc(Cl)nn(-c2ccccc2)c1=O the results were Biofilm kill mix 0.
For CS(=O)(=O)Nc1ccccc1C(=O)Nc1ccccc1Cl the results were Biofilm kill mix 11.
Cc1cc(C)c2ccc(Cl)cc2n1 was read as Biofilm kill mix 14.
O=C(NCc1cccnc1)c1cccn1-c1ncc(C(F)(F)F)cc1Cl was read as Biofilm kill mix 14.
Screening Cc1ccc(NC(=O)N2CCCC2)cc1Cl returned Biofilm kill mix 12.

Remaining list, next part.
CC1CC(C)CN(S(=O)(=O)c2ccc(C(=O)NN3CCOCC3)cc2)C1 (centres undefined) was read as Biofilm kill mix 9.
For CCOC(=O)N1CCN(C(=O)c2cccc(NS(=O)(=O)c3ccc(F)c(F)c3)c2)CC1 the results were Biofilm kill mix 19.
Screening CCS(=O)(=O)N1Cc2ccccc2CC1C(=O)Nc1cccc(C)c1 (centres undefined) returned Biofilm kill mix 11.
CC(C)(C)C(=O)Nc1ccc(S(=O)(=O)Nc2ccccn2)cc1 was read as Biofilm kill mix -5.
CC(=O)Nc1c(C(=O)N2CCCCCC2)cnn1-c1ccccc1Cl was read as Biofilm kill mix 11.
CCC(C)NC(=O)Cn1c(=O)n(-c2ccc(OC)cc2)c(=O)c2ccc(C(=O)NCc3ccc(C)cc3)cc21 (centres undefined) was read as Biofilm kill mix 6.
`CCCNC(=O)Cn1c(=O)cnc2ccccc21` gave Biofilm kill mix 11.
For Cc1ccccc1C(=O)NC(=S)Nc1ccc(Cc2ccncc2)cc1 the results were Biofilm kill mix 8.
For O=[N+]([O-])c1ccc2[nH]nc(-c3ccccc3)c2c1 the results were Biofilm kill mix 14.
`CC(O)c1nc2ccc(C(=O)O)cc2[nH]1` (centres undefined) gave Biofilm kill mix 2.
Screening CCOc1ccc(OCC)c(NC(=O)Cn2c(C)nc3ccccc3c2=O)c1 returned Biofilm kill mix 11.
NCCCC[C@@H]1NC(=O)c2cc([N+](=O)[O-])cc(F)c2NCCCC[C@@H](C(N)=O)NC(=O)CNC1=O was read as Biofilm kill mix 14.
Screening Cc1ccc(S(=O)(=O)Nc2ccc(NC(=O)Nc3cccc(C(F)(F)F)c3)cc2)cc1 returned Biofilm kill mix 9.
`CC1=CC2=NC(=O)/C(=C/c3coc4ccc(Cl)cc4c3=O)C(=N)N2O1` gave Biofilm kill mix 6.
For O=C(O)CSc1nc2c(cnn2-c2ccccc2)c(=O)n1-c1ccc(Br)cc1 the results were Biofilm kill mix 15.
For CSCc1ccc(C(=O)NCc2ccccc2)cc1 the results were Biofilm kill mix 12.
O=C(N/N=C\c1ccc(CNS(=O)(=O)c2ccccc2)o1)C(=O)Nc1ccc(F)cc1 was read as Biofilm kill mix 4.
For COc1ccc(N2CCN(c3cc(C)c4cccc(C)c4n3)CC2)cc1 the results were Biofilm kill mix 10.
`Cc1c(-c2ccccc2)sc2nc[nH]c(=S)c12` gave Biofilm kill mix 9.
`O=[N+]([O-])c1ccc(Cl)cc1N1CCOCC1` gave Biofilm kill mix 0.
For COc1ccc(-n2nnc3c(=O)n(CC(=O)Nc4cc(C)on4)cnc32)cc1 the results were Biofilm kill mix 17.

The list is partial (hit frequency here may not be typical).
